# Compound activity deposited in PubChem BioAssay by Southern Research Institute.
# total CFTR – total CFTR protein upregulators, primary screen, cell-based, HeLa F508del-CFTR, immunofluorescence, viability (AID 1224863); HeLa F508del-CFTR, immunofluorescence total CFTR, 24 h; by the record results were divided by relative cell number; some inactives read as strong as hits; calls, or highest fold increase where a dose series was run; 10,000 tested, 0.1% active; in the data nearly all actives have a first-pass fold increase above 1.5; a few of its hits are not listed in these tables;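 further: total CFTR protein by anti-CFTR immunofluorescence in fixed cells; first pass at 25 µM or 10 µg/mL by library and series up to twice that; 1 = untreated cells; first-pass hits also needed half or more of the cells alive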
# total CFTR fold 25 µM – further read-out of total CFTR, marked with its call; fold increase; measured here: primary screen single dose 25 uM; library dosed in µM
# total CFTR fold 10 ug/mL – second read-out of total CFTR, no call of its own (marks repeat the call); fold increase; measured here: primary screen 10 ug/mL
# total CFTR viability 25 µM – recorded beside total CFTR, whose call it bears; viability, %; measured here: primary viability 25 uM; library dosed in µM;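 0% = killed and 100% = untreated cells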
# total CFTR viability 10 ug/mL – also measured in total CFTR; calls as there; viability, %; measured here: primary viability 10 ug/mL;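 0% = killed and 100% = untreated cells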
# * hit, by the source's call; i = inactive; / = not tested or not shown; & = joins results of further samples. An excerpt; rates above refer to the full screens.
SMILES,total CFTR,total CFTR fold 10 ug/mL,total CFTR viability 10 ug/mL,others
O=C(CCCSc1nnc(-c2ccc[nH]2)o1)c1cccs1,i,0.92,82,
Cc1cc(Sc2nc3ncccn3n2)n2ncnc2n1,i,0.92,97,
CCNC(=O)COC(=O)c1[nH]c(C)c(C(=O)OC(C)C)c1C,i,0.88,90,
Nc1ncnc2c1ncn2C1O[C@H](COP(=O)(O)O)[C@@H](O)[C@H]1O (stereo partly drawn),i,/,/,total CFTR fold 25 µM=0.99;total CFTR viability 25 µM=99
CNC(=O)N(C)C(=O)c1cnc2c(c1)c(=O)[nH]c(=O)n2C,i,1,101,
Clc1cccc2c1NCC2,i,1.2,99,
O=C1CCCc2cc(-c3csc(N4CCOCC4)n3)ccc2N1,i,0.99,96,
NC(=O)NC1CCCc2ccccc21 (stereo not drawn),i,0.99,90,
CCC(C)(C)NC(=O)CCNC(=O)/C=C/c1ccco1,i,0.85,80,
FC(F)(F)CNc1ccccn1,i,1,73,
Nc1ccn([C@@H]2CS[C@H](CO)O2)c(=O)n1,i,/,/,total CFTR fold 25 µM=1.1;total CFTR viability 25 µM=87
Nc1nc(-c2c(-c3ccccc3)[nH]c3ccccc23)cs1,i,1,98,
CC(=O)O[C@]1(C(C)=O)CCC2C3C=C(Cl)C4=CC(=O)CC[C@]4(C)C3CC[C@@]21C (stereo partly drawn),i,/,/,total CFTR fold 25 µM=1.1;total CFTR viability 25 µM=83
C=COCC(F)(F)F,i,/,/,total CFTR fold 25 µM=1;total CFTR viability 25 µM=94
CC1CC2C3CCC4=CC(=O)C=C[C@]4(C)[C@@]3(F)[C@@H](O)C[C@]2(C)[C@@]1(O)C(=O)CO (stereo partly drawn),i,/,/,total CFTR fold 25 µM=1.1;total CFTR viability 25 µM=85
COc1cc(OC)c(OC)cc1CNCc1cccc(Br)c1,i,1,96,
O=c1oc2cc(O)ccc2s1,i,/,/,total CFTR fold 25 µM=0.96&1;total CFTR viability 25 µM=90&95
CCc1c(C)sc2nc(SCCO)n(CCOC)c(=O)c12,i,1,95,
COC(=O)c1c(C)[nH]c(C(=O)OC(C)C(=O)NC(=O)NC(C)C)c1C (stereo not drawn),i,0.94,103,
CC(C)N(Cc1ccccc1)S(=O)(=O)c1cccc2nsnc12,i,1,90,
CC(NS(=O)(=O)c1cc2c(cc1[N+](=O)[O-])OCCCO2)C1CC2CCC1C2 (stereo not drawn),i,0.87,78,
CCC(=O)c1c(O)cc(O)cc1O,i,/,/,total CFTR fold 25 µM=0.99;total CFTR viability 25 µM=87
Cc1oc(CO)cc1C(=O)OCC(=O)c1ccc2c(c1)-c1ccccc1C2,i,0.96,96,
CC(=O)OCC1=C(C(=O)O)N2C(=O)[C@@H](NC(=O)Cc3cccs3)[C@H]2SC1,i,/,/,total CFTR fold 25 µM=1.1;total CFTR viability 25 µM=93
Cn1c(NCC2CC2(Cl)Cl)c(C#N)c(=O)n(C)c1=O (stereo not drawn),i,1,105,
CCC(OC(=O)C1(CC(=O)N2CCOCC2)CCCC1)C(=O)Nc1cc(C)on1 (stereo not drawn),i,0.95,90,
COc1ccc(Br)cc1CNCCCc1cn[nH]c1C,i,0.83,83,
CCn1c(C)cc(C(=O)CN2C(=O)C3CCCN3C2=O)c1C (stereo not drawn),i,1.1,111,
CCc1cccc2c(C(=O)COC(=O)C3(C)CC3(Cl)Cl)c[nH]c12 (stereo not drawn),i,0.87,82,
CC1/C=C/C=C/C=C/C=C/C=C/C=C/C=C/C(O[C@@H]2O[C@H](C)[C@H](O)[C@@H](O)[C@@H]2N)CC(O)C(C(=O)O)C(O)CC(=O)CC(O)CC(O)CC(O)CC(=O)CCCC(=O)CC(=O)OC1C(C)CC(C)C(O)CC(=O)c1ccc(N)cc1 (stereo partly drawn),i,/,/,total CFTR fold 25 µM=0.61;total CFTR viability 25 µM=40

# Molecules shown so far containing a COOH group (two):
SMILES,total CFTR,total CFTR fold 10 ug/mL,total CFTR viability 10 ug/mL,others
CC(=O)OCC1=C(C(=O)O)N2C(=O)[C@@H](NC(=O)Cc3cccs3)[C@H]2SC1,i,/,/,total CFTR fold 25 µM=1.1;total CFTR viability 25 µM=93
CC1/C=C/C=C/C=C/C=C/C=C/C=C/C=C/C(O[C@@H]2O[C@H](C)[C@H](O)[C@@H](O)[C@@H]2N)CC(O)C(C(=O)O)C(O)CC(=O)CC(O)CC(O)CC(O)CC(=O)CCCC(=O)CC(=O)OC1C(C)CC(C)C(O)CC(=O)c1ccc(N)cc1 (stereo partly drawn),i,/,/,total CFTR fold 25 µM=0.61;total CFTR viability 25 µM=40

# 5 consecutive entries already listed:
SMILES,total CFTR,total CFTR fold 10 ug/mL,total CFTR viability 10 ug/mL,others
CCC(OC(=O)C1(CC(=O)N2CCOCC2)CCCC1)C(=O)Nc1cc(C)on1 (stereo not drawn),i,0.95,90,
COc1ccc(Br)cc1CNCCCc1cn[nH]c1C,i,0.83,83,
CCn1c(C)cc(C(=O)CN2C(=O)C3CCCN3C2=O)c1C (stereo not drawn),i,1.1,111,
CCc1cccc2c(C(=O)COC(=O)C3(C)CC3(Cl)Cl)c[nH]c12 (stereo not drawn),i,0.87,82,
CC1/C=C/C=C/C=C/C=C/C=C/C=C/C=C/C(O[C@@H]2O[C@H](C)[C@H](O)[C@@H](O)[C@@H]2N)CC(O)C(C(=O)O)C(O)CC(=O)CC(O)CC(O)CC(O)CC(=O)CCCC(=O)CC(=O)OC1C(C)CC(C)C(O)CC(=O)c1ccc(N)cc1 (stereo partly drawn),i,/,/,total CFTR fold 25 µM=0.61;total CFTR viability 25 µM=40

# More records.
SMILES,total CFTR,total CFTR fold 10 ug/mL,total CFTR viability 10 ug/mL,others
CC(C)N(CC1CCCN(Cn2[nH]c(-c3ccccc3)nc2=S)C1)C(=O)OC(C)(C)C (stereo not drawn),i,0.97,97,
CCN(Cc1cc(=O)oc2c(C)c(O)ccc12)C1CC1,i,0.81,99,
Fc1ccc(-c2[nH]ncc2CNCC2CCCO2)cc1 (stereo not drawn),i,1,93,
O=S(=O)(C1=Cc2ccccc2CC1)N1CCCC1c1ccc(F)cc1 (stereo not drawn),i,0.99,97,
Cn1cnc2c1c(=O)n(CC(=O)NC1CCCCCCC1)c(=O)n2C,i,1,98,
Cc1oc(C)c(C(=O)Nc2cn[nH]c2)c1C,i,0.97,96,
COc1cc(/C=C/c2nc(-c3ccc(F)cc3)cs2)cc(OC)c1OC,i,0.96,79,
CS(=O)(=O)c1ccc(S(=O)(=O)N(Cc2ccc(C(F)(F)F)cc2)C2CC2)cc1,i,1,90,
Nc1ccccc1C1=NNC2(CC(c3ccccc3)=NN2)C(=O)N1 (stereo not drawn),i,1.1,90,
Cc1c(C(=O)OC2CCOC2=O)cnn1-c1ccc(C(F)(F)F)cn1 (stereo not drawn),i,1.1,88,
CSc1ncccc1C(=O)OCC(=O)c1c(N)n(C)c(=O)n(C)c1=O,i,1,105,
COc1ccc2c(c1)CCCN2Cc1nc(-c2ccccc2)no1,i,1,87,
Cc1cc2nc(/C=C/c3ccc(OC(F)F)cc3)sc2cc1C,i,1,85,
CC(C)(C)C(=O)NC(C)(C#N)C1CC1 (stereo not drawn),i,1,97,
NC[C@@H]1O[C@H](O[C@H]2[C@@H](O)[C@H](O[C@@H]3[C@@H](O)[C@H](N)C[C@H](N)[C@H]3O[C@H]3O[C@H](CN)[C@@H](O)[C@H](O)[C@H]3N)O[C@@H]2CO)[C@H](N)[C@@H](O)[C@@H]1O,i,/,/,total CFTR fold 25 µM=0.98;total CFTR viability 25 µM=100

# Three compounds from above, sorted by SMILES length, falling:
SMILES,total CFTR,total CFTR fold 10 ug/mL,total CFTR viability 10 ug/mL,others
CC(C)N(CC1CCCN(Cn2[nH]c(-c3ccccc3)nc2=S)C1)C(=O)OC(C)(C)C (stereo not drawn),i,0.97,97,
Cc1c(C(=O)OC2CCOC2=O)cnn1-c1ccc(C(F)(F)F)cn1 (stereo not drawn),i,1.1,88,
CC(C)(C)C(=O)NC(C)(C#N)C1CC1 (stereo not drawn),i,1,97,

# More results:
SMILES,total CFTR,total CFTR fold 10 ug/mL,total CFTR viability 10 ug/mL,others
COc1ccc(/C=C/C(=O)C(C(=O)O)=C2SCS2)cc1,i,1,95,
COC(=O)C(C)(C)NC(=O)CCNC(=O)c1ccoc1,i,0.9,90,
COc1cc(C)c(/C=C/C(C)=C/C=C/C(C)=C/C(=O)O)c(C)c1C,i,/,/,total CFTR fold 25 µM=0.93;total CFTR viability 25 µM=85
COC(=O)Nc1ccc(O)cc1,i,1.1,101,
CCC(OC(=O)c1nc(SC)ncc1Cl)C(=O)Nc1cc(C)on1 (stereo not drawn),i,1.1,102,
c1ccc2oc(C3CCCN(c4ccc5nnnn5n4)C3)nc2c1 (stereo not drawn),i,0.96,100,
COc1ccc(CCC2(C)NC(=O)N(Cc3cc(=O)oc4cc5c(cc34)CCC5)C2=O)cc1 (stereo not drawn),i,0.94,102,
O=C(CN1CCN(c2nccs2)CC1)NCCCN1CCCC1=O,i,0.92,105,
S=c1nc(C2CCCC2)[nH][nH]1,i,0.88,95,
c1ccc2c(c1)[nH]c1cc(Oc3ccc4nnnn4n3)ccc12,i,1.1,94,
Cc1ccc2c(Cl)cc(Cl)c(OCC(=O)N3c4ccccc4NC(=O)C34CCCC4)c2n1,i,0.95,83,
C(=C\c1ccnc2ccccc12)/c1ccccc1,i,0.82,70,
CC(C)NS(=O)(=O)c1ccc(Sc2nnc(C3CC3)n2C2CC2)c([N+](=O)[O-])c1,i,1,93,
CN(CCCNC(=O)c1ccc(S(=O)(=O)N2CCCC2)o1)S(C)(=O)=O,i,0.96,100,
COc1cc2c(cc1Cc1cccc(Cl)c1F)c(=O)c(C(=O)O)cn2[C@H](CO)C(C)C,i,/,/,total CFTR fold 25 µM=0.76;total CFTR viability 25 µM=82

# Entries from the list above that have a tert-butyl group (2):
SMILES,total CFTR,total CFTR fold 10 ug/mL,total CFTR viability 10 ug/mL,others
CC(C)N(CC1CCCN(Cn2[nH]c(-c3ccccc3)nc2=S)C1)C(=O)OC(C)(C)C (stereo not drawn),i,0.97,97,
CC(C)(C)C(=O)NC(C)(C#N)C1CC1 (stereo not drawn),i,1,97,

# Following part
SMILES,total CFTR,total CFTR fold 10 ug/mL,total CFTR viability 10 ug/mL,others
CC1CCC(NC(=O)c2ccc(S(=O)(=O)NC(C)(C)C)o2)CC1 (stereo not drawn),i,0.96,83,
Cc1cc(C(=O)COC(=O)C2=NNC(=O)CC2)c(C)n1-c1ccc2c(c1)OCCO2,i,0.86,90,
CC1(C)C2CCC1(C)C(NC(=O)Cn1cnc3sc4c(c3c1=O)CCSC4)C2 (stereo not drawn),i,0.96,84,
CCC(CC)N(C(=O)CCc1c(C)nc2c(C#N)cnn2c1C)C1CC1,i,0.96,101,
O=S(=O)(c1cccc(Br)c1)N1CCc2sccc2C1,i,1,88,
N#Cc1ccccc1CSc1nnc(-c2ccc3c(c2)OCO3)o1,i,1,111,
Cc1cc(C)c(C)c(S(=O)(=O)N2CCN(C3CCS(=O)(=O)C3)CC2)c1C (stereo not drawn),i,1.1,84,
O=C1OC(C(=O)NC2CCc3ccccc32)Cc2ccccc21 (stereo not drawn),i,0.99,89,
O=[N+]([O-])c1cc(Br)ccc1I,i,0.9,88,
CC(C)n1nnnc1SCc1cc2c(cc1Br)OCCO2,i,1,101,
c1ccc2c(NC3CCN(C4CC4)CC3)nc(-c3ccncc3)nc2c1,i,0.86,88,
Cc1noc(C)c1S(=O)(=O)N(C)Cc1ccc2c(c1)OCCO2,i,0.98,93,
O=C(CN1C(=O)C(=O)N(C2CCCC2)C1=O)NCCc1cccs1,i,1,96,
CC(C)n1cnn(CN2CCN(c3ccccc3F)CC2)c1=S,i,1,96,
CN1C(=O)c2ccccc2N2C(=O)CCC12C(=O)OCC(=O)c1c(N)n(C)c(=O)n(C)c1=O (stereo not drawn),i,1.1,101,
O=C(OC/C=C/c1ccccc1)c1cnc2n(c1=O)CCS2,i,1,103,
Cc1ccc(CNCC2C=CCCC2)cc1 (stereo not drawn),i,1,101,
COC(=O)c1nn(CN2CCOCC2)c(=O)c2ccccc12,i,0.98,89,
COc1ccc(NS(=O)(=O)c2cc(Br)ccc2Br)cc1Cl,i,1.1,90,
Cc1cc(NC(=O)C(C)OC(=O)C23CC4CC(CC(O)(C4)C2)C3)on1 (stereo not drawn),i,1,105,
Brc1ccc(-c2nnc(CSc3nnnn3Cc3ccco3)o2)s1,i,0.98,96,
CC(CCc1ccccc1)NS(=O)(=O)CCn1cnc2ccccc21 (stereo not drawn),i,0.84,79,
COc1cc(OC)c(N2CC(C(=O)Nc3ccc4c(c3)OCO4)CC2=O)cc1Cl (stereo not drawn),i,1,89,
C=C(C)CN1C(=O)NC(C)(c2ccc(OC(F)F)cc2)C1=O (stereo not drawn),i,1,97,
O=C(O)COc1cc(Cl)ccc1Cl,i,0.98,90,
O=C(COCC1CC1)Nc1nncs1,i,0.96,96,
CCn1cc(C#N)c(=O)n(CCOc2ccccc2)c1=O,i,1,88,
Clc1cccc(Cl)c1NC1=NCCN1,i,/,/,total CFTR fold 25 µM=1.1&1&1.1;total CFTR viability 25 µM=102&90&108
Cc1c(C)c2c(c(C)c1O)CCC(C)(CCCC(C)CCCC(C)CCCC(C)C)O2 (stereo not drawn),i,/,/,total CFTR fold 25 µM=0.92;total CFTR viability 25 µM=87
CC(N(C)CC(=O)NC(N)=O)C(C)(C)C (stereo not drawn),i,1,93,
COc1cc(C2Nc3ccccc3NC3=C2C(=O)CC(C)(C)C3)ccc1O (stereo not drawn),i,1.1,104,
